From PubChem BioAssay
GLA inh pH 4.5: inhibitors of human alpha-galactosidase A at pH 4.5 | purified enzyme, 4-MU-alpha-Gal fluorescence, pH 4.5 | activity change, negative = inhibition, % at 105 µM | 230,000 tested, under 10 active; inconclusive = small, poorly fitted or top-dose-only inhibition, or a rising curve; inactive = flat fitted curve, though single readings scatter; no compound was filed as active;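 further: 0% = full activity with enzyme and -100% = basal without enzyme; dose as in the result columns while the protocol names 77 µM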
Rango complex inh: inhibitors of Rango-importin beta complex formation | Potency, µM (doses to about 92.2 µM), for inactives: at the highest dose inhibition of complex formation | 340,000 tested, 0.031% active | AID 540263 | Rango CFP/YFP FRET sensor + importin beta, 45 min; active = rising FRET ratio curve, often small or poorly fitted; inconclusive = mostly compound fluorescence or quenching in the first reads; inactive = flat curves in all reads;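 further: potency means the concentration at half of the fitted maximal effect; 0% = DMSO wells and 100% = buffer wells lacking importin beta; nearly all actives have a fitted effect of over 15% in size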
Target sequence (Q14974 whole entry, looked up): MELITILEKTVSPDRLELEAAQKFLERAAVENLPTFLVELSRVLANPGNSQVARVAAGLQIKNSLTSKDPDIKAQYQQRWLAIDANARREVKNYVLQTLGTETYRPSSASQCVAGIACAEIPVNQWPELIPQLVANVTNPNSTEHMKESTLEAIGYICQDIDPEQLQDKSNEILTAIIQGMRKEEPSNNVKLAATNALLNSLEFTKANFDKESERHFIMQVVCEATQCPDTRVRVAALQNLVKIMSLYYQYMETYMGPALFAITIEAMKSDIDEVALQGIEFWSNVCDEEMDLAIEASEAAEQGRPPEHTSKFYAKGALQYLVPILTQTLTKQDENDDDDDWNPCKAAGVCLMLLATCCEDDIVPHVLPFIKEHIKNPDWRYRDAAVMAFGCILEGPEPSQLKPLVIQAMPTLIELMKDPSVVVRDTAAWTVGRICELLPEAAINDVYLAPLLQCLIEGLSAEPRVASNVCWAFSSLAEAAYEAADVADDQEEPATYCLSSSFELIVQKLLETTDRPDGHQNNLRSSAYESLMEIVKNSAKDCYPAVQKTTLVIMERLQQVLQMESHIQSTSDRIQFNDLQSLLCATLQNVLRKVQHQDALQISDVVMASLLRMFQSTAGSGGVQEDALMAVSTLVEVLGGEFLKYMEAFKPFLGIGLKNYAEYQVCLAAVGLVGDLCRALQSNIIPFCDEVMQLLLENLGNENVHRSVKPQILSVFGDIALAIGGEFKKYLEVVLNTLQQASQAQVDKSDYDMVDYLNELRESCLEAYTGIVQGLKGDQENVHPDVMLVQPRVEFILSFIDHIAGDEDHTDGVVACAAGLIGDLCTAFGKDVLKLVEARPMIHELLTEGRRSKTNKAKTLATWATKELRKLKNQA
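FRET biosensor (snurportin 1 IBB flanked by EYFP and cerulean), 50 nM, with compound 5 min, then 0.125 microM importin beta in PBS, 1 mM DTT, 0.02% Tween-20, 0.1% BSA. CFP/YFP ratio read after 45 min at room temperature; pre-read flags interference.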
Rango dissoc inh: inhibitors of RanGTP-induced Rango-importin beta complex dissociation; O95149+P62826; Biochemical FRET Rango-importin beta, RanGTP-induced dissociation; Potency, µM (highest dose often 46.1 µM), for the others: at the top dose activity change, negative = inhibition; 340,000 tested, 0.071% active; AID 540253; active means falling FRET ratio curve, often poorly fitted, with flat reads before Ran was added; inconclusive means other falling curves, or compound fluorescence or quenching; inactive means flat or rising ratio curve;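 further: potency means the concentration at half of the fitted maximal effect; % of control where 0% means no effect; nearly all actives have a fitted effect of over 45% in size; -100% = wells without RanGTP and RCC1; the record marks most hits as doubtful in a second field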
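FRET read at 45 min, room temperature: inhibitors block the CFP/YFP signal rise when RanGTP (0.6 uM Ran, 2 mM GTP, 0.2 uM RCC1) frees Rango (0.1 uM) from importin beta (0.25 uM). Pre-read after 5 min compound exposure flags interference.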
miR-21 reporter: miR-21 reporter, rising signal | HeLa miR-21 FLuc reporter, luciferase, 48 h | Potency, µM (series often up to 38.3 µM), without a hit: at the top dose reporter change, positive = more light | 340,000 tested, under 10 active; active = well fitted rising curve with a large enough effect; inconclusive = small, poorly fitted or top-dose-only effect; inactive = no such curve, though single readings can be large or run the other way;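 further: % of control where 0% means no effect; miR-21 action dims this reporter so a rising signal means less miR-21 action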
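Using DMEM plus 10% FBS, HeLa miR-21-FLuc cells are incubated with test compounds (final up to about 40uM) for 48 hours; firefly luciferase signal is then imaged following reagent-mediated lysis.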
* marks the source's active call; other numbers are inactive results; & = joins results of further samples; [ ] = another dose, or the depositor's remark. These rows are one share of the data; the hit share may differ from the screen's.

For O=C(NNC(=O)C1CCCO1)c1ccc([N+](=O)[O-])cc1 (configuration not stated) the results were Rango complex inh 1.1%, Rango dissoc inh -1% and miR-21 reporter 0%.
For CCN1CCCC1CNCC(O)COc1ccc(C(C)(C)C)cc1C (configuration not stated) the results were GLA inh pH 4.5 5, Rango complex inh 0.2%, Rango dissoc inh -6% and miR-21 reporter -2%.
Screening O=Cc1ccc(-c2cccc([N+](=O)[O-])c2)o1 returned GLA inh pH 4.5 -7, Rango complex inh -0.3%, Rango dissoc inh -3% and miR-21 reporter -4%.
Screening COc1ccc(S(=O)(=O)N2CCC(C(=O)Nc3nnc(CCN4CCCCC4)s3)CC2)cc1 returned GLA inh pH 4.5 3, Rango complex inh -0.7%, Rango dissoc inh -5% and miR-21 reporter -3%.
For COc1cccc(NC(=O)CN(C)CC(=O)Nc2ccc(C)cc2Cl)c1 the results were GLA inh pH 4.5 -19, Rango complex inh 1.9%, Rango dissoc inh 6% and miR-21 reporter -1%.
Screening CCN(CC)CCNc1oc(-c2ccccc2)nc1S(=O)(=O)c1ccccc1 returned Rango complex inh -0.3% and Rango dissoc inh 31%.
COc1ccc(C(=O)NC(=S)N2CCN(c3ccc([N+](=O)[O-])cc3)CC2)cc1 was read as GLA inh pH 4.5 -1, Rango complex inh -2.3%, Rango dissoc inh -17% and miR-21 reporter 9%.
For COC(=O)C1(Cc2ccc3c(c2)CCC3)Cc2ccc3c(c2C1=O)CCC3 (configuration not stated) the results were Rango complex inh -0.8% and Rango dissoc inh 1%.
Screening CCCCC(=NCCc1c(C)[nH]c2ccc(OC)cc12)C1=C(O)CC(c2ccccc2)CC1=O (configuration not stated) returned GLA inh pH 4.5 0, Rango complex inh 0.1%, Rango dissoc inh -12% and miR-21 reporter 26%.
CCCCCCNCC1OCc2ccccc2CO1 was read as GLA inh pH 4.5 -8, Rango complex inh -3.9%, Rango dissoc inh -1% and miR-21 reporter -3%.
O=C(O)c1[nH]c2ccccc2c1C(c1cccc(O)c1)c1c(C(=O)O)[nH]c2ccccc12 was read as Rango complex inh -3.3%, Rango dissoc inh 1% and miR-21 reporter 0%.
`Cc1ccc(S(=O)(=O)NC(=O)Nc2nnc(C)s2)cc1` gave GLA inh pH 4.5 -14, Rango complex inh -2.0%, Rango dissoc inh inconclusive and miR-21 reporter -5%.
For COc1ccc(N2CCN(C3CCCN(C(=O)CN4CCCC4=O)C3)CC2)cc1 (configuration not stated) the results were Rango complex inh -0.6%, Rango dissoc inh -8% and miR-21 reporter 0%.
For CCOC(=O)c1sc(Nc2nc(OC)cc(OC)n2)nc1C the results were GLA inh pH 4.5 13, Rango complex inh 9.0%, Rango dissoc inh 0% and miR-21 reporter 0%.
For Nc1nc(COc2ccc3ccccc3c2)cs1 the results were GLA inh pH 4.5 4, Rango complex inh 3.7%, Rango dissoc inh -1% and miR-21 reporter -46%.
For Cc1cccc(-n2cnc(C(=O)NNC(=S)Nc3ccccc3)c2)n1 the results were GLA inh pH 4.5 -1, Rango complex inh -4.5%, Rango dissoc inh 7% and miR-21 reporter -20%.
Screening O=C(NC(Cc1ccccc1)C(=O)N1CCN(c2ccccn2)CC1)c1ccco1 (configuration not stated) returned GLA inh pH 4.5 0, Rango complex inh 1.8%, Rango dissoc inh 27% and miR-21 reporter 0%.
COc1ccc(CCNC(=S)NC(=O)c2ccccc2)cc1C was read as GLA inh pH 4.5 -10, Rango complex inh 5.0%, Rango dissoc inh 6% and miR-21 reporter -4%.
Screening COc1cc(NC(=O)CSCc2ccc(Cl)cc2)c(C(=O)O)cc1OC returned Rango complex inh -1.7%, Rango dissoc inh 1% and miR-21 reporter -3%.
`COC(=O)CN1C(=S)N(C)C(=O)/C1=C/c1cccs1` gave GLA inh pH 4.5 7, Rango complex inh inconclusive, Rango dissoc inh inconclusive and miR-21 reporter -1%.
Screening CCN1CCN(C(=O)C2CCN(S(=O)(=O)c3ccc(Br)cc3)CC2)CC1 returned Rango complex inh 0.2%, Rango dissoc inh -20% and miR-21 reporter -2%.
CCN(CC)S(=O)(=O)c1ccc(C)c(NC(=S)NC2CCCCC2)c1 was read as GLA inh pH 4.5 -5, Rango complex inh -0.1%, Rango dissoc inh 0% and miR-21 reporter 6%.
`CC(C)NS(=O)(=O)c1ccc(OCC(=O)Nc2ccc3c(c2)OCO3)c(Cl)c1` gave GLA inh pH 4.5 -5, Rango complex inh 2.9%, Rango dissoc inh -8% and miR-21 reporter 2%.
For Cc1ccc2nc(NCc3ccc(F)cc3)c3nncn3c2c1 the results were GLA inh pH 4.5 -4, Rango complex inh -3.4%, Rango dissoc inh -5% and miR-21 reporter -5%&-16%.
Screening Cc1cc(C)n2c(SCC(=O)Nc3cc(C)on3)nnc2n1 returned GLA inh pH 4.5 4, Rango complex inh -1.9%, Rango dissoc inh -24% and miR-21 reporter 0%.
Screening CCN(CC)S(=O)(=O)c1ccc(N)cc1 returned GLA inh pH 4.5 2, Rango complex inh 2.7%, Rango dissoc inh 7% and miR-21 reporter 0%.
Screening CCCn1cnc2cc(NC(=O)c3cccs3)ccc21 returned GLA inh pH 4.5 2, Rango complex inh -2.3%, Rango dissoc inh 7% and miR-21 reporter -44%.
For COCC(C)n1c(C)cc(C(=O)COC(=O)c2nn(C)c(=O)c3ccccc23)c1C (configuration not stated) the results were Rango complex inh 1.4% and Rango dissoc inh -10%.
C[C@]12CCC(=O)C=C1C=C[C@@H]1[C@@H]2CC[C@@]2(C)[C@H]1CC[C@@]21CCC(=O)O1 was read as Rango complex inh -4.1%, Rango dissoc inh 8% and miR-21 reporter -14%.
CN1C(=O)c2ccc(C(=O)Nc3cccnc3)cc2C1=O was read as Rango complex inh -1.1%, Rango dissoc inh -1% and miR-21 reporter -3%.
`O=C(Nc1ccnn1C1CCN(Cc2cccc(OCCO)c2)CC1)c1cccc(F)c1` gave Rango complex inh 0.8%, Rango dissoc inh 1% and miR-21 reporter -4%.
`O=C(Cc1ccc(NC(=O)C2CCCN(C(=O)CCc3ccccc3)C2)cc1)Nc1cccc(C(=O)N2CCCC2)c1` (configuration not stated) gave Rango complex inh 5.4% and Rango dissoc inh -1%.
For O=C(NCc1ccco1)C(=O)NCc1ccccc1Cl the results were GLA inh pH 4.5 7, Rango complex inh -1.0%, Rango dissoc inh 16% and miR-21 reporter -31%.
`CC(C)(C)[C@H]1CCC(=O)N([C@H](CSc2ccc(Br)cc2)Cc2ccccc2)CC1` gave Rango complex inh 0.1% and Rango dissoc inh 0%.
For Cc1ccc(N/C=C/C(=O)c2ccccc2)cc1C the results were GLA inh pH 4.5 6, Rango complex inh inconclusive, Rango dissoc inh inconclusive and miR-21 reporter -43%.
Cc1nnc2c3ccccc3c(-c3cccs3)nn12 was read as GLA inh pH 4.5 5, Rango complex inh -0.6%, Rango dissoc inh 3% and miR-21 reporter 0%.
Screening CCn1c(SCC(=O)NC(=O)c2ccccc2OC)nc2ccccc21 returned Rango complex inh -0.2%, Rango dissoc inh -1% and miR-21 reporter -5%.
Screening COc1ccc(OC)c(NC(=O)c2ccc(-c3cccs3)cc2)c1 returned GLA inh pH 4.5 -2, Rango complex inh inconclusive, Rango dissoc inh -21% and miR-21 reporter -14%.
For COc1ccccc1/C=C/C(=O)NCc1cccnc1 the results were GLA inh pH 4.5 5, Rango complex inh 0.8%, Rango dissoc inh -8% and miR-21 reporter -7%.
For CCCc1[nH]nc2c1C(c1ccoc1)C(C#N)=C(N)O2 (configuration not stated) the results were GLA inh pH 4.5 -1, Rango complex inh -1.6%, Rango dissoc inh -24% and miR-21 reporter 6%.
COc1cccc(/C=C/C(=O)NNC(=O)c2ccco2)c1OC was read as Rango complex inh -7.2% and Rango dissoc inh 9%.
For O=c1[nH]c(S)nc2sc3c(c12)CCCC3 the results were GLA inh pH 4.5 6, Rango complex inh -7.5%, Rango dissoc inh 18% and miR-21 reporter -9%.
CC(C)CN(CC(C)C)CC(O)COc1ccc([N+](=O)[O-])cc1 (configuration not stated) was read as GLA inh pH 4.5 inconclusive, Rango complex inh -1.5%, Rango dissoc inh 0% and miR-21 reporter 1%.
Screening COc1cccc2c(C)c(C(=O)O)[nH]c12 returned GLA inh pH 4.5 -8, Rango complex inh inconclusive, Rango dissoc inh inconclusive and miR-21 reporter 13%.
O=C(NC1=CC(=O)c2ccccc2C1=O)c1ccccc1 was read as Rango complex inh -3.1% and Rango dissoc inh 3%.
For CNC(=O)Nc1ccc(S(N)(=O)=O)cc1 the results were GLA inh pH 4.5 0, Rango complex inh 1.7%, Rango dissoc inh 11% and miR-21 reporter -1%.
`O=C(Nc1ccc(F)cc1)Nc1cnccn1` gave Rango complex inh -1.8%, Rango dissoc inh -3% and miR-21 reporter -7%.
`N#Cc1nc(-c2ccccc2)oc1NCCN1CCCCC1` gave GLA inh pH 4.5 -11, Rango complex inh 0.8%, Rango dissoc inh 8% and miR-21 reporter -11%.
For CN(C)c1nc(-c2cccnc2)nc(-c2ccc(Cl)cc2)c1C#N the results were GLA inh pH 4.5 2, Rango complex inh -0.7%, Rango dissoc inh 2% and miR-21 reporter -8%.
O=C(CCCl)Nc1nc2c(s1)CCc1ccccc1-2 was read as Rango complex inh -0.7%, Rango dissoc inh 19% and miR-21 reporter 29%.
Nc1cccc(C(=O)Nc2ccco2)c1 was read as GLA inh pH 4.5 3, Rango complex inh -4.7%, Rango dissoc inh -10% and miR-21 reporter -21%.
`CCOC(=O)c1sc2nc(C)nc(Nc3ccccc3)c2c1C` gave GLA inh pH 4.5 7, Rango complex inh -1.0%, Rango dissoc inh -8% and miR-21 reporter 0%.
For COc1ccc(NC(=S)N2CCCC(c3nc4ccc(C)cc4[nH]3)C2)c(OC)c1 (configuration not stated) the results were GLA inh pH 4.5 -16, Rango complex inh -2.0%, Rango dissoc inh -10% and miR-21 reporter -9%.
`CC(=O)N1CCN(CC(=O)Nc2cc(S(=O)(=O)N3CCCCC3)ccc2C)CC1` gave Rango complex inh -0.1% and Rango dissoc inh -12%.
Screening COc1ccc(NS(=O)(=O)c2ccc(O)c(C(=O)OCC(=O)N3CC(C)OC(C)C3)c2)cc1 (configuration not stated) returned GLA inh pH 4.5 7, Rango complex inh -0.1%, Rango dissoc inh 15% and miR-21 reporter -4%.
`O=c1c2cn[nH]c2[nH]c(=S)n1-c1ccccc1Cl` gave GLA inh pH 4.5 1, Rango complex inh 3.2%, Rango dissoc inh -10% and miR-21 reporter -3%.
`CN(c1ccc(C(=O)NCc2ccncc2)cc1)S(=O)(=O)c1ccc(Cl)cc1` gave Rango complex inh -0.1%, Rango dissoc inh 2% and miR-21 reporter 21%.
COc1ccc(CC(=O)Nc2ccc(-c3cn4ccccc4n3)cc2)cc1 was read as GLA inh pH 4.5 2, Rango complex inh 1.5%, Rango dissoc inh 0% and miR-21 reporter -38%.
`C[C@H](NC(=O)c1ccc(Br)cc1)C(=O)NCc1ccc(S(N)(=O)=O)cc1` gave GLA inh pH 4.5 -3, Rango complex inh -0.9%, Rango dissoc inh -6% and miR-21 reporter 1%.
Cc1nc(SCC(C)C)[nH]c(=O)c1Cc1ccccc1 was read as GLA inh pH 4.5 5, Rango complex inh -1.1%, Rango dissoc inh 16% and miR-21 reporter -7%.
O=[N+]([O-])c1ccc(Cl)c(S(=O)(=O)/N=C(/c2ccccc2)N2CCOCC2)c1 was read as GLA inh pH 4.5 2[21.1 µM], Rango complex inh 0.7%, Rango dissoc inh -1% and miR-21 reporter 4%.
Screening CCc1nnc(NC(=O)c2ccc(OC)cc2)s1 returned GLA inh pH 4.5 2, Rango complex inh -3.2%, Rango dissoc inh 1% and miR-21 reporter -23%.
For COc1cc(=O)[nH]c(SCC(=O)Nc2nc3c(s2)CCCC3)n1 the results were Rango complex inh 0.8%, Rango dissoc inh 12% and miR-21 reporter -3%.

Filtered by structure: the entries above containing fluorine.
For Cc1ccc2nc(NCc3ccc(F)cc3)c3nncn3c2c1 the results were GLA inh pH 4.5 -4, Rango complex inh -3.4%, Rango dissoc inh -5% and miR-21 reporter -5%&-16%.
`O=C(Nc1ccnn1C1CCN(Cc2cccc(OCCO)c2)CC1)c1cccc(F)c1` gave Rango complex inh 0.8%, Rango dissoc inh 1% and miR-21 reporter -4%.
`O=C(Nc1ccc(F)cc1)Nc1cnccn1` gave Rango complex inh -1.8%, Rango dissoc inh -3% and miR-21 reporter -7%.
